Ab BasE inh = inhibitors of Acinetobacter baumannii siderophore enzyme BasE; hit rate 0.1% among 84,000; inhibition, % (no concentration beside the values); purified BasE, fluorescence polarization binding displacement; AID 485350;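 active means both replicates above 25% with normal brightness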;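 further: 0% = negative plate control signal and 100% = positive plate control signal; stock transfer was 100 nL into about 30 µL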
LANA-nucl inh = LANA-nucleosome interaction inhibition | FITC-LANA1-23 / chicken nucleosome fluorescence polarization; active compounds read low | hit rate 0.3% among 51,000 | AID 720717 | z-score (concentration not given with the values);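 active means both repeat wells score below -2 in polarization z-score versus plate sample wells, excluding overly bright wells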;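 further: 100 nL library stock added to about 30 µL; numbers are from one replicate; some results filed as inactive read as strong as hits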
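Material: Purified chicken nucleosomes with FITC-labelled LANA N-terminal peptide (1-23) | Reagent: 50 nM FITC-LANA1-23 probe | Medium: TEN-BT buffer, pH 7.5 | Times: 10–45 min incubation at room temperature | Detection: Fluorescence polarization | Replication: Duplicates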
* hit, by the source's call; nt = no result given; & = joins results of further samples.

SMILES	Ab BasE inh	LANA-nucl inh
Cc1oc(C(=O)O)cc1CSC(C)C(=O)O (stereo unspecified)	-2.5	0.0225
CCOC(=O)N1CCC(NC(=O)Nc2ccc(C)c(Cl)c2)CC1	-3.3	1.45
COc1ccc2[nH]c(C(=O)N(C)c3ccc(F)cc3F)cc2c1	0.1	nt
N#Cc1ccccc1OCC(=O)N(Cc1ccccc1)C1C=CS(=O)(=O)C1 (stereo unspecified)	1.8	nt
COc1cc(C2Nc3cc(Cl)ccc3O2)cc(OC)c1OC (stereo unspecified)	-0.6	0.028
N#C/C(N=Cc1ccc(Cl)cc1)=C(\C#N)NC(=O)Nc1ccc(OC(F)(F)F)cc1	1.9	nt
COc1ccc(C(=O)NC(CC(=O)O)c2ccc(OC)cc2)cc1 (stereo unspecified)	-0.8	-0.885
O=C(CNC1CCCC1)Nc1ccc(N2CCCC2)cc1	-2.2	1.02
N/N=C(/C(=O)c1ccccc1)c1ccccc1	-0.5	nt
Cc1ccc(N2C(=O)C(c3ccccc3)C(N3CCSCC3)C2=O)cc1 (stereo unspecified)	nt	-0.447
CCc1ccc(NC(=O)CCN2C(=O)c3ccccc3C2=O)cc1	-1.5	-0.587
O=C(/C=C/c1ccc2c(c1)OCO2)NC1=NCCS1	-5.3	nt
CC(C)C(N)c1ccccc1 (stereo unspecified)	3.8	nt
CC1(C)CC(=O)C=C(Sc2nc3ccccc3o2)C1	0.4	nt
CC(C)(C)c1cc(C(F)(F)F)c(C#N)c(=O)[nH]1	nt	0.855
O=C(O)/C=C/C=C/c1ccc(Cl)cc1	0.3	2.09
CC(C(=O)NCc1ccccn1)N(c1ccccc1)S(C)(=O)=O (stereo unspecified)	2.0	-0.672
CCc1ccc(C2C(C(=O)OC)=CN(CC3CCCO3)C=C2C(=O)OC)cc1 (stereo unspecified)	3.9	-0.508
CC1CCCCC1NC(=O)COC(=O)c1ccccc1NCCO (stereo unspecified)	-0.1	nt
CCc1ccc(-c2[nH]nc3nc(-c4ccc(O)cc4)cc(C(=O)O)c23)cc1	10.8	0.161
COc1cccc(C(=O)CS)c1	1.7	-0.406
CCCNC(=O)C1CCC(CNS(=O)(=O)c2ccc3c(c2)N(C(C)=O)CCO3)CC1 (stereo unspecified)	-0.6	-1.29
COc1c2c(nc3occc13)C(CC=C(C)C)(OC)C(OC(C)=O)CC2 (stereo unspecified)	0.1	2.09
CCC(=O)Nc1nc2ccc(CC)cc2s1	0.7	nt
CN1C(=O)c2ccc(NC(=O)c3cccc4ccccc34)cc2C1=O	1.2	nt
N#CCC(=O)c1sccc1-n1cccc1	nt	0.006
COc1ccc(C(=O)c2ccccc2O)c(O)c1	1.3&-1.9	0.204&-0.583&0.453
Cc1ccccc1-c1ocnc1C(=O)Nc1cccnc1	-0.3	2.92
O=C(c1ccc(C(F)(F)F)cc1)n1nccc1-c1cc(-c2ccccc2)no1	1.3	-1.25
CCCC(=O)Nc1ncnc2c1ncn2C1O[C@@H]2COP(=O)(O)O[C@H]2[C@H]1OC(=O)CCC (stereo partly specified)	-3.5	0.869
Cc1ccc(C)c(-n2c(SCC(=O)NCC(C)C)nnc2-c2cccnc2)c1	0.7	-0.294
c1csc(-c2nnc(SCC3COc4ccccc4O3)n2CC2CCCO2)c1 (stereo unspecified)	-3.6	nt
Cc1cn2c(nc1=O)O[C@@H]1C[C@H]2O[C@@H]1CO	0.0	-0.223
O=C(Nn1c(=O)[nH]c2ccccc2c1=O)c1ccco1	2.4	-0.192
CCOC(=O)c1c(C)[nH]c(C2=NNC(=NC)SC2)c1C	-4.7	nt
O=C(Cn1c(=O)n(CCCS(=O)(=O)C2CCCCC2)c(=O)c2ccccc21)Nc1ccc(F)cc1	1.5	0.341
COCCNc1nnc(SCc2nnc(-c3ccc(F)cc3)o2)s1	-1.6	nt
COc1cc(/C=C/C(=O)Nc2c3c(nn2C(C)(C)C)CSC3)cc(OC)c1OC	-2.7	-0.542
Cn1c(Cc2cccs2)nnc1SCc1ncc(-c2ccccc2)o1	2.1	nt
O=C(NC(=S)Nc1cccc(O)c1)C1CCCCC1	1.6	nt
CCOC(=O)c1oc2ccc(Br)cc2c1COC(=O)CN1C(=O)C2CC=CCC2C1=O (stereo unspecified)	-1.0	nt
CCCCNC(=O)C1Cc2ccccc2CN1S(=O)(=O)c1cccs1 (stereo unspecified)	1.1	-0.903
Cc1c(Cc2ccc(Cl)cc2)c(=O)n2c([nH]c3ccccc32)c1C#N	0.1	nt
Cn1c(=O)c2c(ncn2CC(=O)NCC#N)n(C)c1=O	1.5	0.514
COC(=O)c1ccc(-c2ccco2)n1CC(=O)NC(C)c1ccccc1 (stereo unspecified)	1.7	-0.473

Entries above containing fluorine, in the order listed:
SMILES	Ab BasE inh	LANA-nucl inh
COc1ccc2[nH]c(C(=O)N(C)c3ccc(F)cc3F)cc2c1	0.1	nt
N#C/C(N=Cc1ccc(Cl)cc1)=C(\C#N)NC(=O)Nc1ccc(OC(F)(F)F)cc1	1.9	nt
CC(C)(C)c1cc(C(F)(F)F)c(C#N)c(=O)[nH]1	nt	0.855
O=C(c1ccc(C(F)(F)F)cc1)n1nccc1-c1cc(-c2ccccc2)no1	1.3	-1.25
O=C(Cn1c(=O)n(CCCS(=O)(=O)C2CCCCC2)c(=O)c2ccccc21)Nc1ccc(F)cc1	1.5	0.341
COCCNc1nnc(SCc2nnc(-c3ccc(F)cc3)o2)s1	-1.6	nt

Remaining list, next part:
SMILES	Ab BasE inh	LANA-nucl inh
CN(C)/C=C/C(=O)c1ccc(-c2cc(Cl)cc(Cl)c2)o1	nt	-0.471
Cc1ccc(NC(=O)CN2C(=O)c3ccccc3C2=O)c(C)c1	-1.9	-0.0705
O=C(c1ccccc1F)N1CCN=C1c1ccccc1	-0.6	0.266
O=C(CSc1nc2ccccc2c(=O)n1-c1cccc(S(=O)(=O)N2CCCC2)c1)c1ccc(O)cc1O	3.1	nt
O=C(c1cccn1-c1nnc(N2CCCCC2)s1)N1CCCC1	-1.5	nt
CN1CCCN=C1/C=C/c1cccs1	-1.7	-0.334
Cc1ccc(C(=O)CSc2nc3cc(C(F)(F)F)ccc3n2C(C)C)cc1	-0.5	nt
Cn1c(-c2cccs2)c(CNCc2ccccc2)c2ccccc21	-3.1	1.25
CCCC1NC(=S)N(c2ccccc2)C1=O (stereo unspecified)	1.3	0.444
O=C(CSc1nnc(Cn2nnc3ccccc32)o1)N1c2ccccc2CCc2ccccc21	0.4	-0.435
NNC(=O)Cc1cccc2ccccc12	-0.3	nt
CCOc1ccc(S(=O)(=O)N/N=C(\C)C2CCCCC2)cc1	1.2	nt
O=C(Nc1ccccc1)OC(CSc1ccccn1)CSc1ccccn1	1.2	nt
Cc1nc(SCc2ccccc2)n[nH]1	-1.5	-0.0365
CCn1c(CC(=O)Nc2cccc(OC)c2)nnc1SCC(=O)c1ccccc1	-2.1	2.68
CN1/C(=C/C=C/c2oc3ccccc3[n+]2C)Oc2ccccc21	5.0	nt
CCN(C(=O)Cn1ncc(Cl)c(Cl)c1=O)C1CCS(=O)(=O)C1 (stereo unspecified)	1.8	nt
COc1ccc(-c2cc(C(=O)O)c3c(C)[nH]nc3n2)cc1	1.3	-0.681
CCOC(=O)c1sc(NC(=S)NCc2cc(C)n(C)n2)c(C(=O)OCC)c1C	-0.5	0.042
COc1ccc(N2C(=O)C(CN3CCN(C)CC3)C2c2ccccc2)cc1 (stereo unspecified)	nt	0.204
O=C(O/N=C1/CCCc2nonc21)C(F)(F)F	-1.5	1.07
N#CCCN(Cc1cccnc1)C(=S)NC1CCCCC1	1.8	nt
COc1ccc(C(=O)N(Cc2ccccc2)c2ccccn2)cc1	-1.2	-0.059
NS(=O)(=O)c1cc(C(=O)O)cs1	9.4	nt
CCN(CC(=O)NCc1cccs1)C(=O)c1cccc(S(=O)(=O)N(CC)CC)c1	3.6	nt
CC1CCc2onc(C(=O)NC3=NN(c4ccccc4)CC3)c2C1 (stereo unspecified)	1.1	nt
Cc1noc(C)c1C(=O)O/N=C(\N)Cc1ccc(-c2csnn2)cc1	-0.4	-0.654
Cc1n[nH]c(=O)nc1NCCCN(C)C	1.1	0.134
COc1ccc(-c2noc(CC(=O)N(C)c3ccc(F)cc3)n2)cc1	-1.3	-0.143
O=C(Nc1cccnc1Sc1ccc(Cl)cc1)c1ccc(C(F)(F)F)cc1	-1.9	nt
Cc1ccc2cc(C#N)c(SCC(=O)Nc3ccccc3N3CCOCC3)nc2c1C	-3.0	0.021
CCC(C(=O)Nc1cccc(OC)c1)N1C(=O)CCn2nccc21 (stereo unspecified)	2.9	0.489
O=C(Nc1ccc(Cl)cc1)OC1CN(C(c2ccccc2)c2ccccc2)C1	nt	-0.0355
COC(=O)CNC(=O)c1ccc(C)c(C)c1	0.2	nt
O=C(O)CCCC(=O)Nc1nncs1	3.3	0.147
Cc1ccccc1OCC(=O)N1CCc2ccccc2C1	-2.4	0.161
COc1ccc(NC(=O)c2ccc(C3SCC(=O)N3Cc3ccco3)cc2)cc1 (stereo unspecified)	-3.5	-1.63
COc1cc(OC)cc(-c2nnc(NC(=O)c3ccc(S(=O)(=O)N(C)c4ccccc4)cc3)o2)c1	0.6	-0.197
Cc1nnc(Nc2ccccc2)c2c1nnn2Cc1ccccc1Cl	-1.6	-0.286
Cc1nn(-c2ccccc2)c2nc3oc(C(=O)c4ccc(Br)cc4)c(N)c3c(-c3cccnc3)c12	0.1	-0.837
N#Cc1c(-c2ccccc2)cc(-c2ccccc2)nc1SCC(O)CS(=O)Cc1ccccc1 (stereo unspecified)	0.5	nt
COc1cc(NC(=S)N2CCCCC2CO)cc(OC)c1 (stereo unspecified)	3.8	-1.05
N/C(=N\O)c1cccc(NC(=O)C2CC2)c1	0.2	nt
C#CCn1c(=NC(=O)C2CC2)sc2ccccc21	-1.3	0.841
COc1cc(NC(=O)c2cnc(N3CCCC3)nc2)cc(OC)c1OC	-2.4	1.57

Rewritten bar-delimited: part of the list above.
compound | Ab BasE inh | LANA-nucl inh
O=C(Nc1ccc(Cl)cc1)OC1CN(C(c2ccccc2)c2ccccc2)C1 | nt | -0.0355
COC(=O)CNC(=O)c1ccc(C)c(C)c1 | 0.2 | nt
O=C(O)CCCC(=O)Nc1nncs1 | 3.3 | 0.147

Remaining list, next part:
SMILES	Ab BasE inh	LANA-nucl inh
CN(C/C(O)=C(\C#N)c1ccccc1)C1CCCCC1	1.6	nt
CCNC(=O)CSc1nc2ccccc2[nH]1	1.1	nt
C/C(N)=C(/C#N)C(=O)CSc1nc2ccccc2c(=O)n1-c1ccc(C)cc1	0.0	nt
Cn1ccnc1SCc1nc(-c2ccccc2)no1	-1.1	nt
CCC1CCCCN1S(=O)(=O)Cc1ccccc1Cl (stereo unspecified)	0.9	-0.0225
C=CCNc1nc(C(=O)OCC(=O)N(C2CCCCC2)C2CCS(=O)(=O)C2)cs1 (stereo unspecified)	-0.4	nt
Clc1cccc(C2C=C(c3ccccc3Cl)Nc3ncnn32)c1 (stereo unspecified)	5.1	-0.554
C=CCn1c(SCC(=O)c2ccccc2)nnc1-c1ccc2c(c1)OCO2	-0.1	-1.1
Cc1nc(CSc2nc3scc(-c4ccco4)c3c(=O)n2-c2ccccc2)cs1	0.6	-0.484
CC(=O)NCc1ccc(C(=O)CSc2nnc(-c3ccccc3)o2)cc1	0.9	nt
C=CCOc1cccc(CNn2nnnc2N)c1	0.4	0.216
Cc1cc(N2CCN(CC(O)C(F)(F)F)CC2)c2ccccc2n1 (stereo unspecified)	nt	-1.24
CC(=C/C(=O)O)/C=C/c1cccs1	6.9	0.328
N#Cc1ccccc1Sc1ccccc1C(=O)NCC(c1ccco1)N1CCCC1 (stereo unspecified)	-2.0	nt
CCOc1ccc2c(c1)C(C)=CC(C)(C)N2	-0.4&-0.9	-0.832&-0.468
O=C(Nc1cccc(-c2nc3ccccc3c(=O)o2)c1)c1ccccc1Br	-0.3	nt
C[C@@H](C(=O)Nc1ccccc1N1CCOCC1)N1C(=O)C2CC=CCC2C1=O (stereo partly specified)	2.7	nt
COc1ccc(NC(=O)c2cc(C)no2)cc1	-2.4	-0.282
COc1ccc(Cc2nnc3n2N=C(c2ccc(CNC(C)=O)o2)CS3)cc1	0.3	nt
CC1CCC(NC(=O)CCC2=NS(=O)(=O)c3ccccc3N2)CC1 (stereo unspecified)	-1.2	0.027
Cn1c(SCc2ccccc2)nc(N)cc1=O	-0.1	0.675
Nc1[nH]c(=O)[nH]c(=O)c1N=Nc1ccc(SC(F)F)cc1	1.2	1.33
Clc1ccccc1-c1nnc(-c2ccccc2CN2CCN(c3ccccc3)CC2)o1	0.4	-0.288
Cn1nnnc1SCC1=C(C(=O)O)N2C(=O)[C@@H](NC(=O)[C@H](O)c3ccccc3)[C@H]2SC1	-0.1	-0.145
Cc1ccc(NC(=O)N2CCC(n3nnc(-c4cccs4)n3)CC2)cc1	0.1	0.5
CCOC(=O)c1cc(OCC(=O)NC(C)C(C)C)cc(C(=O)OCC)c1 (stereo unspecified)	-0.3	nt
COCc1c(C(=O)Nc2cc(C(F)(F)F)ccc2-n2cncn2)oc2ccccc12	0.7	nt
CCn1c(C)c(C)c2cc(C(=O)NCc3cccs3)ccc21	0.0	-0.422
CCCc1cc(C(=O)NC(C)C)no1	4.6	0.481
Cc1nc2ccc(NC(=S)NCCCO)cc2nc1C	-1.7	0.653
NC(=O)c1ccccc1NC(=O)c1cccnc1N1CCCC1	1.9	0.41
Cc1cc(O)c(Cc2c(O)cc(C)n(C)c2=O)c(=O)n1C	1.2	-2.35*
S=C1NC2(CCCC2)NN1c1ccccc1	1.4	nt
CC(=O)Nc1nc(-c2ccc(S(=O)(=O)N3CCOCC3)cc2)cs1	2.0	0.415

A portion of the library, so the mix of outcomes need not match the whole.
